Screening data deposited in PubChem by Fisher Drug Discovery Resource Center.
NPYLR7 agonist = activates Aedes aegypti NPYLR7 receptor; HEK293T NPYLR7/Galpha15, GCaMP6s calcium fluorescence; activation, % at 10 µM; 270,000 tested, 0.15% active; AID 1259423; in the data active = activation above about 40%;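 also: 0% = vehicle and 100% = reference agonist at the receptor; some compounds past the cut are filed as inactive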
NPYLR7 agonist max-min = second read-out of NPYLR7 agonist, no call of its own (marks repeat the call); activation, %; measured here: Max-Min RFU normalised activation; some inactives read as strong as hits;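 span of the calcium signal over five minutes; 0% = vehicle and 100% = native peptide agonist; compound fluorescence can raise it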
* = called active by the depositor. This is a subset (hit frequency here may not be typical).

Below each SMILES: NPYLR7 agonist max-min, NPYLR7 agonist
1. Cc1cc(Nc2ccccc2)n2nc(C)c(-c3ccccc3Cl)c2n1
    3, 7
2. NC(=O)c1ccc(-c2nc(CSC(=S)N3CCCC3)cs2)cc1
    5, 6
3. COc1cccc(CCNC(=O)C2CCCCC2C(=O)N2CCc3c([nH]c4ccccc34)C2)c1 (stereo not given)
    -14, -11
4. Cn1c(COc2ccc(Cl)cc2Cl)nc2c1c(=O)[nH]c(=O)n2C
    -3, 0
5. Cc1cc(C)nc(NN=Cc2ccc(N3CCNCC3)s2)n1
    2, 7
6. Cc1ccc(C(=O)N[C@H](C(=O)OCCN(C)C)C(C)C)cc1
    1, -2
7. O=C(CSc1nnc2ccc(-c3cccc([N+](=O)[O-])c3)nn12)N1CCCCC1
    -9, -14
8. Cc1ccc(OCCN2CCC2(C)C(=O)Nc2ccc(Cl)c(Cl)c2)cc1 (stereo not given)
    2, 2
9. c1cc(C2CCN(C3CCC4(CCNCC4)CC3)CC2)ccn1
    1, 17
10. CCCC(O)(CCC)c1ccc(CN(Cc2ccccc2F)C2CC2)o1
    3, -7
11. COc1cccc(OCC2c3ccsc3CCN2C(=O)CN(C(=O)c2ccccc2Cl)C2CC2)c1 (stereo not given)
    3, -3
12. COC(=O)c1ccc(Cn2c(C)c(C(=O)NCc3cccs3)sc2=O)o1
    5, 9
13. Cc1ccccc1-n1cnn(CN(Cc2ccccc2)C2CCS(=O)(=O)C2)c1=S (stereo not given)
    -8, -9
14. CCCCN1C(=O)CCC(C(=O)Nc2cccc(C)n2)C1c1ccc(OC)cc1 (stereo not given)
    -1, -1
15. Cn1cc(S(=O)(=O)N2CCC(C(=O)O)CC2)cc1C(N)=O
    8, -1
16. CCCCN(C)S(=O)(=O)Nc1cnc(C(C)(C)C)nc1
    1, 1
17. CCCCCCCCC(=O)Nc1c(-c2cccc(Cl)c2)nc2cc(C)ccn12
    -11, -10
18. OC(COc1cc(Cl)ccc1Cl)CN1CCc2sccc2C1 (stereo not given)
    -1, -1
19. O=C(NCc1ccccn1)C(C1CCCC1)N1CCN(C(=O)c2ccc(Cl)cc2Cl)CC1 (stereo not given)
    0, -8
20. CCOc1ccc(C(C)NC(=O)CNC(=O)c2ccc(Cl)cc2Cl)cc1 (stereo not given)
    7, 12
21. Cc1ccc(S(=O)(=O)NCC(c2cccn2C)N2CCc3ccccc3C2)c(C)c1 (stereo not given)
    0, 0
22. COCCNC(=O)C(NC(=O)c1ccc(OC)cc1)C1CCN(C(=O)c2ccc(C(F)(F)F)cc2)CC1 (stereo not given)
    7, 1
23. CSc1nc(NNC=O)cc(Oc2ccc(NC(C)=O)cc2)n1
    11, 6
24. COCCNc1ncc(Br)nc1Br
    7, 14
25. CC(C)(C)c1ccc(C2SCCN2C(=O)c2cccc(F)c2)cc1 (stereo not given)
    26, 22
26. CC(Sc1nc(-c2ccccc2)cs1)C(N)=O (stereo not given)
    -6, -5
27. C=CCNC(=O)C(=O)NC1CCCCC1
    11, 11
28. CCCCCCNC(=O)c1[nH]ncc1[N+](=O)[O-]
    -6, -4
29. Cc1ncc(CN(C)c2cc(Cl)nc(N)n2)s1
    10, 11
30. COc1cccc(CN(CCN2CCOCC2)Cc2nc(C(=O)N(C)Cc3ccccc3)co2)c1OC
    -5, 3

Structures above containing nitrogen in an aromatic ring, in the order listed:
Below each SMILES: NPYLR7 agonist max-min, NPYLR7 agonist
1. Cc1cc(Nc2ccccc2)n2nc(C)c(-c3ccccc3Cl)c2n1
    3, 7
2. NC(=O)c1ccc(-c2nc(CSC(=S)N3CCCC3)cs2)cc1
    5, 6
3. COc1cccc(CCNC(=O)C2CCCCC2C(=O)N2CCc3c([nH]c4ccccc34)C2)c1 (stereo not given)
    -14, -11
4. Cn1c(COc2ccc(Cl)cc2Cl)nc2c1c(=O)[nH]c(=O)n2C
    -3, 0
5. Cc1cc(C)nc(NN=Cc2ccc(N3CCNCC3)s2)n1
    2, 7
7. O=C(CSc1nnc2ccc(-c3cccc([N+](=O)[O-])c3)nn12)N1CCCCC1
    -9, -14
9. c1cc(C2CCN(C3CCC4(CCNCC4)CC3)CC2)ccn1
    1, 17
12. COC(=O)c1ccc(Cn2c(C)c(C(=O)NCc3cccs3)sc2=O)o1
    5, 9
13. Cc1ccccc1-n1cnn(CN(Cc2ccccc2)C2CCS(=O)(=O)C2)c1=S (stereo not given)
    -8, -9
14. CCCCN1C(=O)CCC(C(=O)Nc2cccc(C)n2)C1c1ccc(OC)cc1 (stereo not given)
    -1, -1
15. Cn1cc(S(=O)(=O)N2CCC(C(=O)O)CC2)cc1C(N)=O
    8, -1
16. CCCCN(C)S(=O)(=O)Nc1cnc(C(C)(C)C)nc1
    1, 1
17. CCCCCCCCC(=O)Nc1c(-c2cccc(Cl)c2)nc2cc(C)ccn12
    -11, -10
19. O=C(NCc1ccccn1)C(C1CCCC1)N1CCN(C(=O)c2ccc(Cl)cc2Cl)CC1 (stereo not given)
    0, -8
21. Cc1ccc(S(=O)(=O)NCC(c2cccn2C)N2CCc3ccccc3C2)c(C)c1 (stereo not given)
    0, 0
23. CSc1nc(NNC=O)cc(Oc2ccc(NC(C)=O)cc2)n1
    11, 6
24. COCCNc1ncc(Br)nc1Br
    7, 14
26. CC(Sc1nc(-c2ccccc2)cs1)C(N)=O (stereo not given)
    -6, -5
28. CCCCCCNC(=O)c1[nH]ncc1[N+](=O)[O-]
    -6, -4
29. Cc1ncc(CN(C)c2cc(Cl)nc(N)n2)s1
    10, 11
30. COc1cccc(CN(CCN2CCOCC2)Cc2nc(C(=O)N(C)Cc3ccccc3)co2)c1OC
    -5, 3

Continued.
Below each SMILES: NPYLR7 agonist max-min, NPYLR7 agonist
31. Cc1cc(C2=NNC(=NC3CC3)SC2)c(C)n1Cc1ccco1
    5, 2
32. C=CCC1(OC)CCN(C(=O)c2cc(COc3ccccc3)on2)CC1
    -1, -1
33. CCN(CC)c1nc(Nc2cc(C)cc(C)c2)c2cnn(-c3ccccc3)c2n1
    1, 2
34. O=S(=O)(Nc1ccc2[nH]ncc2c1)c1cccs1
    7, 3
35. Cn1cnnc1SCC(=O)N(Cc1ccco1)C1=CCCCC1
    -6, -4
36. Cc1ccoc1C(=O)N1CCC(O)(C(=O)O)CC1
    7, 7
37. CC(C)Cc1cc(Cn2cnc(-c3ccccc3)c2C2CCOC2)no1 (stereo not given)
    -1, 0
38. Cc1ccc(F)cc1CC(=O)N(C)Cc1ccncc1C
    0, -1
39. CCC1=[N+](C)c2cccc3cccc(c23)N1C
    -19, -13
40. CCNC(=O)N(Cc1cc(Cl)ccc1OS(=O)(=O)c1ccc(F)cc1)C(C)CC (stereo not given)
    10, 21
41. Cc1noc(C)c1C(=O)OCC(=O)NC1CC1
    2, -3
42. Cc1cccnc1C(NC(=O)C1CCN(C(=O)N(C)c2ccccc2)CC1)c1ccc(F)cc1 (stereo not given)
    -13, 2
43. CCC(=O)Nc1ccc(C)c(NCC(=O)N(CC)c2ccccc2)c1
    1, 4
44. O=C(c1ccncc1)N1CCN(C(=O)c2cccc(F)c2)CC1
    5, 6
45. Cc1ccc(C2=NC(=Cc3ccco3)C(=O)O2)cc1C
    35, -1
46. Cc1c(-c2ccc(F)cc2)[nH]c2ccc(CNC(=O)c3cncn3C)cc12
    -7, -1
47. CCOc1ccccc1C1CC(=O)Nc2c1c(C)nn2-c1ccc(Cl)nn1 (stereo not given)
    -4, 0
48. CCc1nc2ccc(C(=O)NCCN3CCNC3=O)cn2c1N(C)Cc1ccc(OC)cc1
    -1, 9
49. CCOc1cc(C=C2C(=O)NC(=S)NC2=O)ccc1OCCBr
    -7, -5
50. COc1ccc(CC2CCN(S(=O)(=O)c3ccc(F)c(Cl)c3)CC2)cc1
    -3, 2
51. COc1ccc2cc(C(=O)N3CCc4c([nH]c5ccccc45)C3c3ccccn3)n(C)c2c1 (stereo not given)
    2, 5
52. COc1ccc(CN(CC(C)C)C(=O)C23CC4CC(CC(C4)C2)C3)cc1OS(=O)(=O)c1ccc(F)cc1
    3, 6
53. COc1ccccc1NC(=O)N(Cc1ccc(C(F)(F)F)cc1)CC1CC(c2ccc(F)cc2)=NO1 (stereo not given)
    30, 14
54. COc1ccccc1C1c2[nH]c3ccccc3c2CCN1C(=O)Cn1nc2ccccc2n1 (stereo not given)
    -1, 11
55. CC1(C)CC(=O)C(C(c2ccc(Cl)s2)C2C(=O)CC(C)(C)CC2=O)C(=O)C1
    11, 10
56. O=C(NS(=O)(=O)Cc1ccc(Cl)nc1)C1=Cc2ccccc2OC1
    0, 2
57. COCCN1CCC(CN(C)C2CCNCC2)C1 (stereo not given)
    1, 2
58. CN(Cc1ccccc1)Cc1cc(C(=O)N(C)Cc2cnccn2)no1
    -10, 5
59. O=C(NCC(=O)N(CC1CC1)c1ccccc1)N1CCc2ccccc2C1
    -4, 1
60. O=C(Cc1ccc(F)cc1)Oc1coc(CSc2ncccn2)cc1=O
    -11, -12

Additional entries follow:
Below each SMILES: NPYLR7 agonist max-min, NPYLR7 agonist
61. COc1nc2ccccc2cc1-c1ccc(-n2cnnc2)nc1C
    -2, 0
62. COc1ccccc1N1CCN(c2ccc(NC(=O)c3ccccc3Cl)cc2C(=O)N2CCCCC2)CC1
    -1, -7
63. CCCC(C)C(=O)Nc1cccc(S(=O)(=O)N2CCCCC2)c1 (stereo not given)
    6, 1
64. CSc1ccc(C=Nc2ccc(-c3nnc4n3CCCCC4)cc2)cc1
    4, 5
65. CN(C)c1ccccc1C(=O)N1CCC(n2nccc2NC(=O)c2cccc(F)c2)CC1
    8, 18
66. CCc1ccc(CN(C)C(=O)CN2CCN(c3ccc([N+](=O)[O-])c4cnccc34)CC2)cc1
    1, 0
67. COC(=O)c1cccc(C(=O)N(C)C2CCCN(C3Cc4ccccc4C3)C2)c1 (stereo not given)
    5, 10
68. CC1CN(C(=O)CCCSc2nnc(-c3ccccc3Cl)n2-c2ccccc2)CCN1C(=O)c1ccc(Cl)cc1Cl (stereo not given)
    5, -1
69. C=C(C)CN1CC(C(=O)O)CC1=O (stereo not given)
    9, 11
70. Cc1ccc(S(=O)(=O)n2ccc(C(=O)O)c2)cc1
    -4, -1
71. O=C(CN1C(=O)CNC12CCN(C(=O)Cc1ccsc1)CC2)Nc1ccc(F)cc1
    14, 2
72. CCOC(=O)c1c(C)[nH]c(C(=O)OCC(=O)C23CC4CC(CC(C4)C2)C3)c1C
    1, 3
73. CNc1cnc(-c2ccc(OC)cc2)cn1
    0, 2
74. O=S(=O)(NC1CCCc2ccccc21)c1ccccc1 (stereo not given)
    -5, -3
75. COCCn1cc(C(=O)N2CCN(Cc3ccccc3)CC2)c2nn(-c3ccccc3)c(=O)c-2c1
    4, 5
76. O=C(NCCc1ccccn1)c1cc2n(n1)CCN(Cc1c(F)cccc1Cl)C2=O
    -3, -5
77. Cc1nn(C)cc1-c1c(-c2ccccc2)ncn1C(CC(C)C)c1cccnc1 (stereo not given)
    -1, 11
78. CN(C)S(=O)(=O)c1ccc(C(=O)NCc2ccccc2)o1
    5, 7
79. O=C1C2CC=CC=C2NC(=S)N1CCc1ccc(Cl)cc1 (stereo not given)
    0, 1
80. O=C(NCc1ccncc1)C1CCCN1C(=O)c1ccc2ccccc2c1O (stereo not given)
    -8, -7
81. O=C1CN(S(=O)(=O)c2ccccc2)CC(O)CN1Cc1cccs1 (stereo not given)
    29, 20
82. CN(C)CCCOc1nn(Cc2ccccc2)c2ccccc12
    -8, -6
83. O=C(NC1CCN(c2ccc(F)cc2)CC1)c1ccc2nc(C3CC3)oc2c1
    7, 14
84. O=c1cc(CN2CCc3ccccc32)nc2ccc(Br)cn12
    20, -7
85. CC(NC(=O)c1ccc(CS(C)(=O)=O)o1)c1ccc(F)c(F)c1 (stereo not given)
    2, 7
86. C=C1c2ccccc2C(=O)N1CCC(=O)Nc1ccccc1Cl
    1, 0
87. Cc1ccc(NC(=O)Cc2csc(N3CCCC3=O)n2)cc1Cl
    -7, -2
88. COC(=O)c1ccc(CN2CCN(c3nccc(C(C#N)c4ccccn4)n3)CC2)cc1 (stereo not given)
    2, -3
89. CCC(C)(C)NC(=O)Cc1nc(-c2ccsc2)oc1C
    2, 10
90. Cc1ccc(-c2nc(N)nc3[nH]ncc23)c(-n2cccn2)c1
    -12, -8
91. COC(=O)c1c(C)[nH]c(C(=O)C(C)OC(=O)c2cnc(C)cn2)c1C (stereo not given)
    1, 0
